Screening results (PubChem)
ClpP mod – qHTS Assay for Activators of ClpP. ATP-dependent Clp protease proteolytic subunit (Bacillus subtilis (strain 168)), P80244. purified B. subtilis ClpP, FRET peptide cleavage, 20 min. Potency, µM (doses to about 57.5 µM), without a hit: top-dose activity change, negative = active. 1.9% of 340,000 active. AID 651965, 2013; active = well fitted falling curve with a large enough effect; inconclusive = small, poorly fitted or top-dose-only effect; inactive = no such curve, though single readings can be large or run the other way; also: potency is read from the fitted curve at half-maximal effect; the source files actives as falling curves though it sought activators and does not explain the sign; nearly all actives have a fitted effect of over 65% in size; many hits overshoot -100%
Target sequence (P80244 whole entry, looked up): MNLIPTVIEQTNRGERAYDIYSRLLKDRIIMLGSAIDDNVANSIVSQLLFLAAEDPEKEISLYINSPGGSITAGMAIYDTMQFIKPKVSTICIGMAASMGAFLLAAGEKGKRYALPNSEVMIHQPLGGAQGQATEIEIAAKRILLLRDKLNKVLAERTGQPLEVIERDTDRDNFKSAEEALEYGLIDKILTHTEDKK
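Purified B. subtilis ClpP, 10 microg/mL final in Tris/HCl pH8 with KCl, BSA, glycerol and Tween-20, cleaved an Abz/nitrotyrosine-quenched decapeptide. Fluorescence (ex 320, em 430) was read at 0 and 20 min at room temperature. Delta was normalized to 5.8 microM ADEP and DMSO/no-enzyme controls.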
TRPML1 ag – human mucolipin-1 channel agonism. Q9GZU1. 0.12% of 410,000 active. TRPML1-expressing cells, Ca2+ dye fluorescence, FDSS; host cell line not named in the record; reference of the full effect not given here. activation, % (no concentration beside the values); in the data active = activation above about 50%; inconclusive = about 30% to 50%; inactive = below about 30%; also: 0% is about no effect; the text of the record puts the active cut at 80%
Target sequence (Q9GZU1 whole entry, looked up): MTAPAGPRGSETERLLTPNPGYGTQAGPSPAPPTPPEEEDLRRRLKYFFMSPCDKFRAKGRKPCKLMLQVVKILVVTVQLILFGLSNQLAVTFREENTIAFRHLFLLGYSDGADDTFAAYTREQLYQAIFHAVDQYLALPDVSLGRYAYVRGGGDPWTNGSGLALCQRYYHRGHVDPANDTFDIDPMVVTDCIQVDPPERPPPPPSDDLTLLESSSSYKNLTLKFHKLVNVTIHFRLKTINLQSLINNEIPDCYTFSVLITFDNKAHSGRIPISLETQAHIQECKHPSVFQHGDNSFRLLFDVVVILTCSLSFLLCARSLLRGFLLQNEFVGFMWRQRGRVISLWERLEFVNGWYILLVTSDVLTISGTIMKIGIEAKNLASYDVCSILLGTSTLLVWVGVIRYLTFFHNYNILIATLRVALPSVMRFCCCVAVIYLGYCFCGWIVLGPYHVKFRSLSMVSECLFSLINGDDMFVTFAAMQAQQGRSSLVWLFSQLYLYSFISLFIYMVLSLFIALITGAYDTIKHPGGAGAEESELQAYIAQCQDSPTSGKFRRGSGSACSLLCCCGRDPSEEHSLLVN
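Calcium fluorescence on an FDSS kinetic reader gave the read-out. Tet-induced TRPML1-DL cells were plated overnight, dye-loaded (Ca8 with quencher, 45-90 min, room temperature, dark), then read 110 s after compound addition, and again 110 s after 4uM final 54-4 (EC80).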
Menin MLL FP FL – menin-MLL binding inhibition, fluorescein peptide; Fluorescence polarization, fluorescein-MLL peptide displacement from menin; FP activity change, % at 61.4 µM; 290,000 tested, under 10 active; AID 1766; inconclusive = falling polarisation curve, or a change in total fluorescence; inactive = total fluorescence flat and polarisation flat or rising; no compound was filed as active; the % refers to the polarisation; negative = inhibition;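 also: % of control where 0% means no effect; inhibitors lower the polarisation; unlabelled MLL peptide was the positive control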
TRPML1 blocker – human mucolipin-1 channel inhibition; Q9GZU1; TRPML1-inducible cells, Ca2+ dye fluorescence, FDSS; active compounds read low; inhibition of EC80 agonist-evoked calcium signal; activity change, negative = inhibition, % (concentration not given with the values); 0.02% of 390,000 active; AID 624415; in the data active means activity change below about -50%; inconclusive means about -30% to -50%; inactive means above about -30%;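 also: stimulus is agonist 54-4 at its EC80 concentration; % is scaled to controls: 0 for no effect and ±100 for the full control effect; the text of the record puts the active cut at -80%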
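TRPML1-DL cells, Tet-induced overnight (~16 h, 37 °C) at 1,500 cells/well, were loaded with Ca8 no-wash dye plus quencher for 45-90 min at room temperature. Compounds were pinned during FDSS kinetic reading; agonist 54-4 at EC80 (4 uM final) then added.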
gsp agonist – activates gsp, the McCune-Albright syndrome mutation; Potency, µM (top dose mostly 76.9 µM), without a hit: at the top dose activation (cAMP increase), actives largely listed as activators; AID 624287; gsp mutant cells, cAMP HTRF, 30 min; control for the full effect not named in the record; 0.13% of 340,000 active; active = well fitted activation curve with a large enough effect; inconclusive = small, poorly fitted or top-dose-only effect, or another doubt; inactive = no such curve, though single readings can be large or run the other way; cell line not stated here;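 also: phosphodiesterase inhibitor Ro 20-1724 added with compounds to block cAMP breakdown; potency is read from the fitted curve at half-maximal effect; nearly all actives have a fitted effect of over 60% in size; about a fifth of the inactives were tested at one dose only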
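Cells in DMEM/10% FBS with G418 were pretreated with compounds in DMSO plus […] (300 uM stock) for 30 min at 37C. cAMP was measured by HTRF (cAMP-d2 plus anti-cAMP antibody-K) after 30 min at room temperature.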
gsp antagonist – antagonists of gsp mutant (McCune-Albright syndrome) | 0.4% of 340,000 active | Potency, µM (top dose mostly 76.9 µM), for the others: at the highest dose activity change, negative = inhibition, actives largely listed as inhibitors | gsp-mutant cells, cAMP HTRF, 30 min; control for the full effect not named in the record; active = falling curve of any shape with a large fitted effect; inconclusive = falling curve, mostly with a smaller effect; inactive = flat or rising curve; cell line not stated here;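 also: intracellular cAMP measured with PDE inhibitor Ro 20-1724 present during compound exposure; potency is read from the fitted curve at half-maximal effect; % is scaled to controls: 0 for no effect and ±100 for the full control effect; nearly all actives have a fitted effect of over 65% in size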
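HTRF cAMP read-out (cAMP-d2 plus anti-cAMP antibody-K in lysis buffer, 30 min RT). Before lysis, cells are exposed to compounds with […] for 30 min at 37C in DPBS containing Ca/Mg, BSA and Tween 20.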
Numbers without * were called inactive; ? = inconclusive; nt = not tested or not shown; & = joins results of further samples; [ ] = another dose, or the depositor's remark.

SMILES	ClpP mod	TRPML1 ag	Menin MLL FP FL	TRPML1 blocker	gsp agonist	gsp antagonist
CCOC(=O)c1oc2ccccc2c1COC(=O)CNC(=O)c1cc(OC)c(OC)c(OC)c1	nt	2.7	nt	-15	-6%[15.4 µM]	-9%
CN(C)CCCN(C(=O)c1ccc(C(=O)c2ccccc2)cc1)c1nc2ccc(F)cc2s1	-1.2%	0.8	-4.1	24	6%	0%
CC(=O)Nc1cccc(-c2nnc(-c3ccccc3)o2)c1	-19%	0.1	3.1	1	-7%	-6%
N#C/C=C/N1CCN(Cc2ccc3c(c2)OCO3)CC1	1.3%	-1.1	-4.2	-7	0%[15.4 µM]	6%
C[C@H]1CN([C@@H](C)CO)C(=O)CCCn2nncc2CO[C@H]1CN(C)C(=O)NC1CCCCC1	1.7%	-0.1	nt	1	-3%	nt
O=C(OCc1cc(=O)n2nc(C3CC3)sc2n1)c1ccc(F)cc1	-18%	-1.0	nt	-4	nt	nt
O=C(COC(=O)CNS(=O)(=O)c1ccccc1)NC12CC3CC(CC(C3)C1)C2	nt	0.5	-3.9	34	?	5%
O=C(NC1CCCc2c1cnn2-c1ccc(F)cc1F)c1ccccn1 (configuration not stated)	nt	-1.0	1.2	-4	-36%[inhibitor]	4%
COc1ccc(-c2noc(C(=O)NCc3ccccc3Cl)n2)cc1OC	1.4%	2.2	14	6	?	-28%
COc1ccc(-n2nc(C(=O)Nc3cccc(Cl)c3)c3c4ccccc4n(C)c3c2=O)cc1Cl	-1.5%	-1.2	nt	4	nt	nt
Cc1ccc(C(=O)NCc2nnc(SCC(=O)NC(C)c3ccccc3)n2C)cc1 (configuration not stated)	nt	-0.3	0.3	1	-24%[15.4 µM]	6%
COC(=O)C1=C(C)N(CCCC(=O)O)C(=O)NC1c1ccc(OC)cc1 (configuration not stated)	-0.5%	-0.7	nt	-5	?	6%
O=C(NNC(=O)c1ccc(NC(=O)C2CC2)cc1)c1ccc(F)cc1	-19%	0.3	nt	-11	22%	4%
O=C(OC12CC3CC(CC(C3)C1)C2)c1ccc(NCc2cc(O)ccc2O)cc1	-2.4%	0.4	nt	21	-26%	-2%
COc1ccc2cc(C(=O)N3CCc4ccccc43)[nH]c2c1	11%	1.8	0.7	11	?	-7%
COc1ccc(C(=O)O)cc1S(=O)(=O)Nc1cccc(C(F)(F)F)c1	-1.1%	1.1	2.8	-9	?	5%
COc1ccc(C(=O)OCc2c(F)cccc2Cl)cc1S(=O)(=O)N1CCOCC1	2.5%	0.8	nt	7	-16%	-12%
Cc1oc2c(c1C(=O)NCc1cccnc1)C(=O)c1ccccc1C2=O	0.4%	-1.4	-3.5	-8	-64%[inhibitor]	7%
Cc1ccc(OCCCCCCN2CCNCC2)c(Br)c1	0.0%	0.6	nt	2	-3%[15.4 µM]	9%
COc1cccc(CN(C)C(=O)c2ccc(Oc3ccccc3)cc2)c1OC	nt	1.6	-0.6	-2	-18%[15.4 µM]	-16%
O=C(NCc1cccnc1)C1CCN(S(=O)(=O)N2CCOCC2)CC1	-1.6%	0.5	-2.4	2	25%	1%
O=C(Nc1ncc2c(n1)-c1ccccc1OC2)c1ccc(Cl)cc1Cl	35µM*	1.9	1.7	19	6%	-1%
O=[N+]([O-])c1ccccc1S(=O)(=O)Nc1cccc(-c2ccc(N3CCOCC3)nn2)c1	-23%	0.9	nt	-17	3%[15.4 µM]	-11%
C=CCn1c(C(C)(C)C)nc2ccccc21	nt	-0.1	0.5	5	-22%	1%
O=S(=O)(NCC(c1cccnc1)N1CCN(Cc2ccccc2)CC1)c1ccc(Cl)cc1 (configuration not stated)	-1.0%	-0.4	nt	21	-9%	-7%

New compounds follow
SMILES	ClpP mod	TRPML1 ag	Menin MLL FP FL	TRPML1 blocker	gsp agonist	gsp antagonist
C=CCc1c(C)nn(CC(=O)O)c1-c1ccccc1	-3.8%	-0.8	-0.6	13	?	-2%
OCC(O)C1OC(Nc2ccc(Cl)cc2)C(O)C1O (configuration not stated)	0.5%	0.0	1.1	-13	?	8%
CCCCN1C(=O)Cc2c1nc(N)c1c(N)nc(N(CCC)CCC)c(C#N)c21	12%	1.9	4.8	44	1%	-8%
CCc1ccccc1NC(=O)CSc1nnc(Cn2nnc3ccccc32)n1C	-1.3%	0.6	-0.7	-11	?	1%
Cc1ccccc1NC(=S)N(Cc1ccccn1)Cc1ccccc1Cl	-0.5%	1.9	-2.4	18	-1%	-20%
O=C(Cc1ccccn1)c1ccccc1	1.1%	-0.4	nt	2	nt	5%
CCOc1ccc(Cl)cc1S(=O)(=O)N1CCC(C(=O)NCc2ccco2)CC1	nt	2.0	3.6	7	8%	-6%
COc1cccc(NC(=O)CN(C)C(=O)CC(NC(=O)c2ccccc2Cl)c2ccccc2)c1 (configuration not stated)	0.0%	-0.4	nt	2	14%	-4%
COc1ccc2c(Cl)c(C(=O)NCc3ccco3)sc2c1	-4.4%	0.5	-0.7	14	1%	-2%
O=C(c1ccc(F)cc1)C1CCN(Cc2ccccc2F)CC1	-2.1%	0.4	nt	5	0%	nt
CCOc1cccc(C(=O)Nc2cc(-c3nn4c(C)nnc4s3)ccc2C)c1	-3.1%	1.7	-2.2	2	?	-5%
CC(C)Cn1nc(C(=O)NCc2ccccc2CN2CCCC2)c2ccccc2c1=O	-2.0%	0.1	nt	16	-1%	6%
CC(=O)c1sc(NC(=O)c2c(F)cccc2F)nc1C	-4.8%	0.1	2.2	-4	-1%	-7%
Cc1ccc(-n2ccc(=O)c(C(=O)Nc3ccc(S(=O)(=O)Nc4onc(C)c4C)cc3)n2)cc1	-1.8%	0.5	-2.5	-5	?	9%
CCc1nnc(NC(=O)C2Cc3ccccc3CN2S(=O)(=O)c2c(C)c(C)cc(C)c2C)s1 (configuration not stated)	-4.2%	3.5	5.0	25	-12%	-17%
Cc1ccc2[nH]c(=O)c(CN(CCCN(C)C)C(=O)Nc3cccc(Cl)c3)cc2c1	-16%	-0.2	0.1	33	1%	9%
COc1cccc(OC)c1C(=O)Nc1nc2ccc(S(C)(=O)=O)cc2s1	?	-0.2	0.4	2	-1%	18%
Cn1c(C(=O)Nc2ccc3c(c2)OCCO3)cc2c(=O)n(C)c3ccccc3c21	-18%	2.7	3.3	3	7%	-9%
O=C(CSc1nnc2ccccn12)c1ccc(OC(F)F)cc1OC(F)F	-0.8%	-0.4	3.0	-13	22%	13%
Cc1cccc(NC(=O)CCS(=O)(=O)c2ccc(Cl)cc2)c1	-0.2%	-0.9	4.9	-18	-3%	5%
C/C=C/c1ccc(OCC(=O)N(C)CC(=O)Nc2ccc(F)cc2)c(OC)c1	-2.7%	0.9	nt	-8	-15%	-3%
Cc1cccn2c(=O)c3cc(C(=O)NCCN4CCOCC4)c(=N)n(CCCN4CCOCC4)c3nc12	nt	0.0	-0.8	-4	-4%[15.4 µM]	14%
CN(NS(C)(=O)=O)c1c(C#N)c(C(F)(F)F)nn1C	nt	0.5	-0.7	6	5%	10%
C/C=N/NC(=O)c1cc(Br)ccc1O	52%	-0.4	3.2	-6	-18%	2%
COc1ccc(NS(=O)(=O)c2cccc3nsnc23)cc1Cl	nt	1.2	-0.8	5	9%	-6%

Random excerpt: 2 entries already listed, in no set order.
SMILES	ClpP mod	TRPML1 ag	Menin MLL FP FL	TRPML1 blocker	gsp agonist	gsp antagonist
Cc1ccccc1NC(=S)N(Cc1ccccn1)Cc1ccccc1Cl	-0.5%	1.9	-2.4	18	-1%	-20%
Cc1cccn2c(=O)c3cc(C(=O)NCCN4CCOCC4)c(=N)n(CCCN4CCOCC4)c3nc12	nt	0.0	-0.8	-4	-4%[15.4 µM]	14%

(further entries)
SMILES	ClpP mod	TRPML1 ag	Menin MLL FP FL	TRPML1 blocker	gsp agonist	gsp antagonist
N#CN/C(=N\S(=O)(=O)c1ccccc1)c1ccccc1	nt	-0.6	-7.5	0	-18%	-2%
O=c1[nH]c2cc(F)ccc2c2ccc(F)cc12	-8.3%	0.6	nt	4	-65%[inhibitor]	6%
COc1ccc(/C=C/C(=O)OCC(=O)Nc2ccc3[nH]c(=O)[nH]c3c2)cc1OC	1.1%	-0.6	nt	3	9%[15.4 µM]	-10%
COc1ccc(C2CC(=O)Oc3c(C(C)C)ccc(C)c32)cc1 (configuration not stated)	-2.9%	11	-0.9[94.6 µM]	-8	nt	0%
O=C(OCC(=O)N1N=C(c2ccc(Cl)cc2)CC1c1ccco1)c1ccccc1O (configuration not stated)	35µM*	2.1	4.3	24	-2%	0%
CCCN1CCC(=O)N([C@H](CSc2ccccc2)c2ccccc2)CC1	-4.8%&-12%	0.6&0.1	0.9	32	-1%	2%
COc1cccc(-c2nnc(SCCOc3ccc4c(C)cc(=O)oc4c3)o2)c1	28µM*	-0.9	1.7	-5	-30%	-2%
Cc1cccc(C(=O)OCC(=O)NCc2cccs2)c1	nt	1.9	-0.1	-3	-2%[15.4 µM]	-1%
Cc1ccccc1OCC(=O)OCC(=O)NC1CCCC(C)C1C (configuration not stated)	-1.3%	0.9	nt	4	-38%[inhibitor]	nt
CCCOc1ccc(/C=C/C(=O)NC2CCCCC2)cc1OC	-4.0%	-0.1	1.1	-17	2%[15.4 µM]	0%
CCOc1ccc(CNC(=O)C2CCCN(c3nn4cc(-c5ccc(F)cc5)nc4s3)C2)cc1 (configuration not stated)	1.6%	-0.2	nt	6	nt	nt
CCCCNC(=O)C1(O)c2ccccc2NC(=O)N1c1ccc(Cl)cc1 (configuration not stated)	nt	1.3	-3.2	15	-7%	4%
O=C1C=C(NCC2CCCO2)CC(c2ccccc2)C1 (configuration not stated)	-30%	1.2	0.6	4	3%	-11%
O=C(NNC(=O)C12CC3CC(CC(C3)C1)C2)c1cccc([N+](=O)[O-])c1	nt	1.9	-1.5	2	27%	1%
O=C(NCc1ccccn1)C1CCC(=O)N1C1CCCCC1 (configuration not stated)	-4.6%	-0.5	4.3	-16	-47%[inhibitor]	-8%
Cc1cc(/C=N/NC(=O)CC#N)c(C)n1-c1ccc([N+](=O)[O-])cc1	-0.5%	-1.5	-2.6	-15	19%[15.4 µM]	24%
Cc1c(C(=O)NCCSCc2c(Cl)cccc2Cl)cccc1[N+](=O)[O-]	-1.3%	3.6	3.7	35	?	-25%
COc1ccc(C(CC(=O)Nc2nccs2)n2cccc2)cc1 (configuration not stated)	-1.2%	3.2	4.3	3	-31%[inhibitor]	-5%
O=C(O)C1CC=C(Cl)CC1C(=O)NCc1ccccc1 (configuration not stated)	-1.3%	0.0	-1.0	30	-27%	-4%
Cc1ccccc1NC(=O)c1cnc2sc(N3CCCC3)nn2c1=O	-0.1%	0.6	nt	14	nt	nt
CCO[C@H]1OC(C(=O)NCc2ccccc2)=C[C@@H](c2ccccc2)[C@@H]1CCCO	-0.4%	0.7	-1.6	9	nt	-13%
